Assay outcomes from PubChem BioAssay.
Calb biofilm kill – clotrimazole potentiators killing C. albicans biofilm, primary screen, 4-compound mixtures; C. albicans biofilm persisters + clotrimazole, fluorescence viability; primary screen in compound mixtures of four per well; inhibition, % at 7.6 µM; 0.02% of 120,000 active;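 active = inhibition above 30.3% in the primary screen of four-compound pools, then above 30% when the compound was retested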;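 also: compounds exposed to preformed 24 h biofilms for 48 h; the number belongs to the whole pool; some results filed as inactive read as strong as hits; inactives centre near 12; 0% = biofilm with clotrimazole alone and 100% = kill control; retested singly at about 60 µM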
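Test system: C. albicans CAF4-2 wild-type biofilms; buffer or medium: RPMI/MOPS medium, pH 7.0; schedule: 24 h biofilm formation, then 48 h compound exposure, 37 °C; detection: Alamar Blue fluorescence; measure: percent inhibition of biofilm viability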
The depositor's hits bear a star.

Molecule	Calb biofilm kill
COc1cc(CNc2ccc(N3CCN(C(C)=O)CC3)cc2)ccc1OCc1ccccc1	22
COc1ccc(C2N(c3ccccc3)C(=S)N3CCCN23)cc1 (stereo not given)	14
COc1ccc(N2C(=O)CC(NNc3nc4ccccc4s3)C2=O)cc1 (stereo not given)	19
CC(C)c1ccc(/C=C(/C#N)c2nnc(NC(=O)c3ccccc3)s2)cc1	21
O=C(Nc1ccc(F)c([N+](=O)[O-])c1)C(=O)c1c(O)[nH]c2ccccc12	16
FC(F)(F)c1ccccc1-n1c(-c2cnccn2)n[nH]c1=S	25
S=C(Nc1ccc(Br)cc1)N1CCn2cccc2C1c1cccnc1 (stereo not given)	14
Cc1ccc2[nH]c(=O)c(CN(Cc3ccco3)C(=O)N3CCOCC3)cc2c1	7
Nc1nc(NCC2CCCO2)nc(Nc2ccccc2F)c1[N+](=O)[O-] (stereo not given)	14
c1ccc2oc(NC3=NCN(C4CCCCC4)CN3)nc2c1	8
Cc1cc(C)c2c(N)c(C(=O)N3CCc4ccccc4C3)sc2n1	20
CCn1c(-c2ccccc2)csc1=Nc1ccc(S(=O)(=O)O)cc1	1
O=c1c2ccccc2nnn1Cc1ccccc1Cl	13
O/N=C/c1ccc2ccccc2c1	-1
Cc1[nH]c2ccccc2c1C(=O)COC(=O)c1cccc(S(=O)(=O)N2CCCCC2)c1	3
CCN(CC)S(=O)(=O)c1ccc(Cl)c(NC(=O)c2cc(Cl)ccc2Cl)c1	-4
CCNC(=O)c1cc(Cl)ccc1OC	5
CN(C)S(=O)(=O)c1cccc(NC(=O)c2ccc(OC(F)(F)F)cc2)c1	8
CCC(CC)C(=O)Nc1cccc(C(=O)NC(C)(C)C)c1	8
CC(=O)c1ccc(N2CCCCC2)c(F)c1	29

Of the compounds above, nine have a halogen.
Molecule	Calb biofilm kill
O=C(Nc1ccc(F)c([N+](=O)[O-])c1)C(=O)c1c(O)[nH]c2ccccc12	16
FC(F)(F)c1ccccc1-n1c(-c2cnccn2)n[nH]c1=S	25
S=C(Nc1ccc(Br)cc1)N1CCn2cccc2C1c1cccnc1 (stereo not given)	14
Nc1nc(NCC2CCCO2)nc(Nc2ccccc2F)c1[N+](=O)[O-] (stereo not given)	14
O=c1c2ccccc2nnn1Cc1ccccc1Cl	13
CCN(CC)S(=O)(=O)c1ccc(Cl)c(NC(=O)c2cc(Cl)ccc2Cl)c1	-4
CCNC(=O)c1cc(Cl)ccc1OC	5
CN(C)S(=O)(=O)c1cccc(NC(=O)c2ccc(OC(F)(F)F)cc2)c1	8
CC(=O)c1ccc(N2CCCCC2)c(F)c1	29

Next part.
Molecule	Calb biofilm kill
CCOC(=O)c1cnc2c(-c3ccc(F)cc3)cnn2c1C(F)(F)F	19
CCOc1ccc(CNC2CCCc3ccccc32)cc1 (stereo not given)	-3
O=C(CSc1nc2ccccc2c(=O)n1CC1CCCO1)NCc1ccc2c(c1)OCO2 (stereo not given)	-3
O=C(NCCCn1ccnc1)/C(=C\c1cccs1)NC(=O)c1ccccc1	13
Nc1c(C(=O)c2ccc(Br)cc2)oc2ccccc12	6
CC(C)(CNC(=O)c1sc2cc(F)ccc2c1Cl)N1CCOCC1	7
CN1CCC(C2(O)c3ccccc3CSc3sccc32)CC1 (stereo not given)	13
COc1cccc(-c2nn(-c3ccccc3)cc2/C=C(/NC(=O)c2ccccc2)C(=O)O)c1	28
COc1ccc(C2CC(O)(c3ccccc3)Oc3c(C)ccc(C)c32)cc1 (stereo not given)	10
CCC(C)NC(=S)NNC(=O)c1ccc(C(C)(C)C)cc1 (stereo not given)	16
COc1ccc(NC(=O)CCS(=O)(=O)c2ccccc2)c(OC)c1	17
COCCn1cc(C(=S)N2CCCCC2)c2ccccc21	6
CCOC(=O)c1cn(Cc2ccc(Cl)cc2Cl)c2cc(C)nn2c1=O	17
Cn1cccc1/C=N/NC(=O)c1cccc(OC(F)(F)C(F)F)c1	6
CC(NC(=O)C(=O)NCC1CCCO1)c1ccccc1 (stereo not given)	3
Cc1ccc(OCCNC(=O)c2cc(=O)[nH]c3ccccc23)cc1	10
CC(NCc1ccccc1Cl)C(=O)Nc1ccc(S(=O)(=O)N2CCCC2)cc1 (stereo not given)	18
Cc1cc(C)nc(NS(=O)(=O)c2ccc(NC(=S)NC(=O)C(C)C)cc2)n1	15
O=C1/C(=C/c2ccc(F)cc2)CCC1C1CCCC1 (stereo not given)	20
CCOC(=O)Cc1csc(Nc2ccc(Cl)cc2)n1	0
Cc1ccc(C)c(NC(=S)NCC(c2ccccc2)N(C)C)c1 (stereo not given)	-12
CCOc1ccc(C(=O)CC(NCc2cccs2)C(=O)O)cc1 (stereo not given)	8
C#CCNC(=O)C1=C[C@H](C2CCCCC2)C[C@H](OCc2ccc(CO)cc2)O1	15
CN=c1scc(-c2ccccc2Br)n1/N=C/c1ccc[nH]1	9
COc1cccc(C(=O)NC(=O)Nc2cc(C)[nH]n2)c1	18
Cc1cc(C)c(NC(=O)c2cn3c4c(c(N5CCN(C)CC5)c(F)cc4c2=O)OCC3C)c(C)c1 (stereo not given)	-5
O=C1C2C3C=CC(C4CC34)C2C(=O)N1Cc1ccccc1 (stereo not given)	20
COC(=O)C(Cc1c[nH]c2ccccc12)NC(C)=O (stereo not given)	15
CC(=O)c1cccc(NC(=O)CC2S/C(=N/N=C/c3cccs3)NC2=O)c1 (stereo not given)	1
CC[n+]1c(/C=C2/C=C(C)CC(C)C2)sc2ccccc21 (stereo not given)	0
c1ccc(-c2cc3c(N4CCCCC4)ncnc3s2)cc1	-5
COc1cc([N+](=O)[O-])ccc1-c1ccc(C(=O)Nc2ccc(NC(C)=O)cc2)o1	14
O=C(c1ccncc1)N1N=C(C2CC2)CC1(O)C(F)(F)F (stereo not given)	8
Cn1c(N)c(C(=O)CSc2nc3ccccc3c(=O)n2Cc2ccccc2)c(=O)n(C)c1=O	14
Cn1c(=O)c2c(nc(N/N=C/c3cccnc3)n2Cc2ccccc2)n(C)c1=O	14
COc1ccc(C(=O)NCC(=O)OCC(=O)NCCC2=CCCCC2)cc1	13
CCN(CC)C(=O)C(C(=O)c1cccc([N+](=O)[O-])c1)n1cc(Cl)ccc1=O (stereo not given)	18
CC(=O)c1ccc(-c2ccc([C@H]3[C@H]4C=CC[C@@H](C)[C@@H]4C(=O)N3Cc3ccccc3)c(F)c2)cc1	20
COC(=O)c1ccc(NC(=O)COc2ccc(S(=O)(=O)NC(C)(C)C)cc2)cc1	13
O[C@H]1COC2C1OC[C@@H]2O (stereo not given in full)	3
O=C(CNC(=O)c1cccc(F)c1)N/N=C/c1ccc(O)c([N+](=O)[O-])c1	18
COc1cccc(-n2c(Cc3cc(=O)[nH]c(=O)[nH]3)nnc2SCc2cccc(C(F)(F)F)c2)c1	10
O=C(Oc1cc(=O)oc2c1c(=O)n1c3c(cccc23)CC1)c1ccc(F)cc1	20
Cn1ccnc1C(=O)c1ccc(NN)c([N+](=O)[O-])c1	18
CCOC(=O)N1CCC(=NNc2ccc(S(=O)(=O)N3CCOCC3)cc2[N+](=O)[O-])CC1	16
C[C@@H](C(=O)NCc1ccc(S(C)(=O)=O)cc1)[C@@H]1C[C@@]1(C)[C@@H](NC(=O)OCc1ccccc1)c1ccccc1	15
CC(C)(C)C(=O)N(Cc1ccccc1)c1ccccn1	7
Cc1ccc(CN2CCN(Cc3cnc(C)s3)CC2CCO)o1 (stereo not given)	17
O=C(Nc1ccc(N2CCOCC2)cc1)c1c(F)cccc1Cl	8
CN(C)/C=C(\C=O)c1ncc(C(F)(F)F)cc1Cl	2

(next part)
Molecule	Calb biofilm kill
CN(CCOC(=O)/C=C/c1ccccc1)C(C)(C)C	12
C=CCOc1nc2c(c(=O)n(C)c(=O)n2C)n1Cc1ccccc1	17
Cc1ccc(S(=O)(=O)NC2=NCCCCC2)cc1	-5
CSc1ncc(Cl)c(C(=O)Nc2cccc(C)c2)n1	21
COc1cc(CNC(C)(C)CO)cc(Br)c1OCc1ccccc1	8
O=C1NC[C@H](c2ccccc2)N(CC2CCCCC2)C1=O	0
O=C(CSc1nnc(-c2ccc(Cl)cc2)n1CC1CCCO1)NC1CCS(=O)(=O)C1 (stereo not given)	7
Cc1nc(C)c(CCNC(=O)c2cccc(Cl)c2)s1	10
COCCCn1cn[nH]c1=S	5
Cc1ccc(CN2C(=O)/C(=C\c3ccc(C(=O)NCc4cccnc4)cc3)Oc3ccccc32)cc1	0
O=c1c2ccccc2nc2n1CCC2O (stereo not given)	9
CC(=O)Nc1ccc(OC(=O)COc2ccc(Br)cc2)cc1	14
Cn1nc(C(=O)N2CCOCC2)c([N+](=O)[O-])c1C(=O)N1CCOCC1	14
O=C1CN(C(=O)c2cc3ccccc3oc2=O)C(c2ccc(F)cc2)c2cc(F)ccc2N1 (stereo not given)	11
CC1CC(C)CN(c2ccc([N+](=O)[O-])cc2-c2nn[nH]n2)C1 (stereo not given)	7
COc1ccc(NC(=O)Nc2ccc(Br)cn2)cc1	11
CC(C)c1ccc(N2C(=O)CC(NNC(=O)c3cccnc3)C2=O)cc1 (stereo not given)	0
CCOc1cc(/C=C2/SC(=S)N(CC(=O)O)C2=O)ccc1OC(=O)c1cccs1	17
Cn1c(O)c(N=NC(=O)Cn2ccc(C(F)(F)F)n2)c2ccccc21	11
COC(=O)/C=C/c1cnc2ccccc2c1	-14
COCCOc1ccc(C(F)(F)F)cc1NC(=O)c1ccccc1F	12
Cc1ccn2cc(CCNC(=O)Cc3cccs3)nc2c1	14
O=S(=O)(Nc1ccc(N2CCCCC2)cc1)c1ccc(F)c(F)c1	8
Cc1cc(OC(C(=O)O)c2ccccc2)c2c(C)c(Cc3ccccc3)c(=O)oc2c1 (stereo not given)	46
COC1CCCN(Cc2nc(Cc3ccccc3F)no2)C1 (stereo not given)	26
CCOC(=O)N1CCN(C(=O)CCSc2ccc(Cl)cc2)CC1	10
NC(=O)C1CCN(C(=S)NCc2ccc3c(c2)OCO3)CC1	24
O=C(NC1(C(F)(F)F)N=C(c2ccccc2)NC1=O)c1ccccc1F (stereo not given)	13
CCOC(=O)CC(NC(=O)c1cc2cccc(OC)c2oc1=O)c1cccc([N+](=O)[O-])c1 (stereo not given)	22
CC(C)N(Cc1ccccc1)C(=O)Cn1c(=O)cnc2ccccc21	13
Cc1ccc(Nc2nc(N)c([N+](=O)[O-])c(NCc3ccccc3)n2)cc1	12
CC(=O)N(c1cccc(C)c1)S(=O)(=O)c1ccc(Cl)cc1	7
N=C1C(c2ccccc2)=C(O)CN1c1cccc(O)c1	21
CCOC(=O)c1c(C)nn(-c2ccc(NC(=O)/C=C/C(=O)O)cc2)c1C	7
COc1ccc(/C=C/C(=O)Nc2cccc(F)c2)cc1S(=O)(=O)N1CCOCC1	15
COC(=O)c1cc(-c2cccs2)nn1-c1ccccc1	-2
CCNc1nc(SCCOc2ccc(Br)cc2)nc(N(C)C)n1	11
COC(=O)CCc1sc(NC2CCCCC2)nc1-c1ccc(OC)cc1	5
O=C(COC(=O)c1cccnc1Cl)Nc1ccccc1OC(F)F	16
S=C(NCc1ccc(Cl)cc1)N1CCN(c2ccccn2)CC1	20
Cc1ccc2ccccc2c1NC(=O)Cn1nnc(-c2cccnc2)n1	20
Nc1cc(C(=O)O)ccc1Sc1ccccc1C(=O)O	13
CC(C)C(=O)N=C1SC2CS(=O)(=O)CC2N1Cc1ccc(Cl)cc1 (stereo not given)	20
Cc1c2c(nc3ccccc13)CC(C)(C)CC2=O	3
CC(=O)N1CCN(CC(=O)Nc2ccccc2Sc2ccccc2)CC1	9
COc1ccc(CNC(=O)CSc2nc3ccc(N)cc3s2)cc1	16
NC(=O)NCCCC(=O)OCC(=O)c1ccc2ccccc2c1	9
COc1ccc(C2SCCN2C(=O)c2ccc([N+](=O)[O-])cc2)cc1 (stereo not given)	19
COC(=O)[C@@H]1[C@@H](C)OC(=O)N[C@H]1c1ccccc1	8
O=C1NN(c2ccc(F)cc2)C(=O)/C1=C\C=C\c1ccco1	19

More entries
Molecule	Calb biofilm kill
COC(=O)N/N=C/c1cn(CCCOc2ccc(C)cc2)c2ccccc12	19
COc1ccc(C(=O)CCNc2ccc3c(c2)OCCO3)cc1	19
Cn1c(N)c(C(=O)CSc2ccccn2)c(=O)n(C)c1=O	21
C/C(=N/OC(=O)c1ccc(C(F)(F)F)cc1)c1oc(C)nc1C	14
CCOc1ccc(CCNC(=O)COC(=O)/C=C/c2ccc(OCC#N)c(OC)c2)cc1OCC	13
C=CCn1c(C)cc(C2=NNC(=NCC)SC2)c1C	8
O=C(CNC(=O)c1ccccc1O)N/N=C/c1ccccn1	19
O=C(CN1CCC(c2nc3ccccc3s2)CC1)NCc1ccccc1	14
CCC(C)n1c(-c2cccc(S(=O)(=O)N(CC)CC)c2)n[nH]c1=S (stereo not given)	5
CCNC(=S)N/N=C/c1ccc(C(=O)O)cc1	11
COc1cc(-c2[nH]ncc2CN2CCc3sccc3C2)cc(OC)c1OC	10
COCC1CCN(Cc2nc(-c3ccc(OC)cc3)no2)CC1	-10
O=C(Nc1ccccc1)C1=C[C@@H](C2CCCCC2)C[C@@H](OCCCCO)O1	19
C1=C(CCNc2ncnc3c2cnn3-c2ccccc2)CCCC1	10
CCc1ccc(OCC(=O)Nc2cccc3nsnc23)cc1	15

These rows are one share of the data, so the mix of outcomes need not match the whole.
